High-throughput results (PubChem)
Vaccinia stage: blocks a specific stage of Vaccinia orthopoxvirus infection | Vaccinia-infected cells, mCherry/Venus stage reporter fluorescence; active compounds read low; some inactives read as strong as hits | activity change (mCherry), % (no concentration beside the values) | 0.01% of 89,000 active;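 active = mCherry past -33% and 40 or more points under the early reporter, replicates agreeing; inconclusive = past -33% without that gap or agreement; tested in A549 cells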;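 note: scaled between vehicle wells and reference inhibitor wells; 23 nL library stock went into each well; one replicate is shown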
Vaccinia stage Venus: further read-out of Vaccinia stage, marked with its call; activity change (Venus), %; measured here: Venus reporter, other viral stage;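 negative = less Venus signal; first of two replicates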
Numbers without * were called inactive. This is a subset; rates above refer to the full screens.

`COc1ccc(CN(C)C[C@H]2OCc3cnnn3CCCC(=O)N([C@@H](C)CO)C[C@@H]2C)cc1` gave Vaccinia stage 7 and Vaccinia stage Venus 9.
Screening CCCNC(=O)N1CC(=O)N2[C@@H](CO)[C@H](c3ccc(C#Cc4cccc(F)c4)cc3)[C@@H]2C1 returned Vaccinia stage 1 and Vaccinia stage Venus -12.
Screening COc1ccc(NC(=O)Nc2ccc3c(c2)CC(=O)N([C@@H](C)CO)C[C@H](C)[C@@H](CN(C)S(=O)(=O)c2c(C)noc2C)O3)cc1 returned Vaccinia stage 25 and Vaccinia stage Venus 17.
Screening CC(=O)N1CC(=O)N2[C@@H](CO)[C@@H](c3ccc(-c4ccc(C#N)cc4)cc3)[C@@H]2C1 returned Vaccinia stage 15 and Vaccinia stage Venus 5.
`Cc1noc(C)c1NC(=O)Nc1ccc2c(c1)C(=O)N([C@H](C)CO)C[C@@H](C)[C@@H](CN(C)Cc1ccc(Cl)c(Cl)c1)O2` gave Vaccinia stage -9 and Vaccinia stage Venus -5.
CO[C@@H]1CN(C)C(=O)c2ccc(NC(C)=O)cc2OC[C@@H](C)N(C(=O)Cc2ccccn2)C[C@@H]1C was read as Vaccinia stage 7 and Vaccinia stage Venus 3.
For C[C@H](CO)N1C[C@H](C)[C@@H](CN(C)C(=O)c2ccccc2)Oc2ncc(C#Cc3ccccc3)cc2C1=O the results were Vaccinia stage -1 and Vaccinia stage Venus -6.
For COc1ccc(S(=O)(=O)N(C)C[C@@H]2Oc3ccc(NC(=O)c4ccncc4)cc3CC(=O)N([C@H](C)CO)C[C@@H]2C)cc1 the results were Vaccinia stage 15 and Vaccinia stage Venus 18.
C[C@H]1CN([C@@H](C)CO)C(=O)c2cccc(NC(=O)C3CC3)c2O[C@H]1CN(C)Cc1ccc(Oc2ccccc2)cc1 was read as Vaccinia stage 8 and Vaccinia stage Venus 14.
`COc1cccc(-c2ccc3c(c2)O[C@H](CN(C)Cc2ccncc2)[C@@H](C)CN([C@H](C)CO)S3(=O)=O)c1` gave Vaccinia stage -7 and Vaccinia stage Venus -8.
C[C@@H]1CCCCO[C@H](CN(C)Cc2ccccc2)[C@H](C)CN([C@H](C)CO)C(=O)c2cc(NC(=O)Cc3ccccc3)ccc2O1 was read as Vaccinia stage inconclusive.
For Cc1cccc(S(=O)(=O)N[C@@H]2CC[C@H](CCNS(=O)(=O)c3ccccc3F)O[C@H]2CO)c1 the results were Vaccinia stage -4 and Vaccinia stage Venus 1.
For CCC(=O)Nc1ccc2c(c1)OC[C@H](C)N(Cc1cncnc1)C[C@@H](C)[C@@H](OC)CN(C)C2=O the results were Vaccinia stage 0 and Vaccinia stage Venus 4.
Screening Cn1cnc(S(=O)(=O)N[C@H]2CC[C@H](CC(=O)Nc3ccc(-c4ccccc4)cc3)O[C@@H]2CO)c1 returned Vaccinia stage 5 and Vaccinia stage Venus 0.
For Cc1ccc(S(=O)(=O)Nc2ccc3c(c2)C(=O)N([C@@H](C)CO)C[C@@H](C)[C@@H](CN(C)S(=O)(=O)c2cn(C)cn2)OCCCC[C@H](C)O3)cc1 the results were Vaccinia stage 6 and Vaccinia stage Venus 10.
For COc1ccc(S(=O)(=O)N(C)C[C@H]2OCCCC[C@H](C)Oc3ccc(NS(=O)(=O)c4cccs4)cc3C(=O)N([C@@H](C)CO)C[C@H]2C)cc1 the results were Vaccinia stage -11 and Vaccinia stage Venus 9.
Screening C/C=C/c1ccc([C@H]2[C@@H](CO)N(CC3CC3)C23CN(S(=O)(=O)CC)C3)cc1 returned Vaccinia stage 5 and Vaccinia stage Venus 11.
Screening CNC(=O)C[C@@H]1CC[C@H]2[C@@H](COc3ccc(NC(=O)C4CCCCC4)cc3C(=O)N2C)O1 returned Vaccinia stage 14 and Vaccinia stage Venus 11.
`C[C@@H]1CN([C@@H](C)CO)C(=O)c2cc(NC(=O)C3CCCCC3)ccc2O[C@@H](C)CCCCO[C@@H]1CN(C)Cc1ccc2c(c1)OCO2` gave Vaccinia stage inconclusive.
Screening CC(C)NC(=O)N(C)C[C@@H]1Oc2ccc(NC(=O)Cn3cnnn3)cc2CC(=O)N([C@H](C)CO)C[C@H]1C returned Vaccinia stage 2 and Vaccinia stage Venus 1.

Arranged by SMILES length (ascending): part of the list above
For Cc1cccc(S(=O)(=O)N[C@@H]2CC[C@H](CCNS(=O)(=O)c3ccccc3F)O[C@H]2CO)c1 the results were Vaccinia stage -4 and Vaccinia stage Venus 1.
For CCC(=O)Nc1ccc2c(c1)OC[C@H](C)N(Cc1cncnc1)C[C@@H](C)[C@@H](OC)CN(C)C2=O the results were Vaccinia stage 0 and Vaccinia stage Venus 4.
Screening Cn1cnc(S(=O)(=O)N[C@H]2CC[C@H](CC(=O)Nc3ccc(-c4ccccc4)cc3)O[C@@H]2CO)c1 returned Vaccinia stage 5 and Vaccinia stage Venus 0.
Screening CC(C)NC(=O)N(C)C[C@@H]1Oc2ccc(NC(=O)Cn3cnnn3)cc2CC(=O)N([C@H](C)CO)C[C@H]1C returned Vaccinia stage 2 and Vaccinia stage Venus 1.
`COc1cccc(-c2ccc3c(c2)O[C@H](CN(C)Cc2ccncc2)[C@@H](C)CN([C@H](C)CO)S3(=O)=O)c1` gave Vaccinia stage -7 and Vaccinia stage Venus -8.
C[C@H]1CN([C@@H](C)CO)C(=O)c2cccc(NC(=O)C3CC3)c2O[C@H]1CN(C)Cc1ccc(Oc2ccccc2)cc1 was read as Vaccinia stage 8 and Vaccinia stage Venus 14.
For COc1ccc(S(=O)(=O)N(C)C[C@@H]2Oc3ccc(NC(=O)c4ccncc4)cc3CC(=O)N([C@H](C)CO)C[C@@H]2C)cc1 the results were Vaccinia stage 15 and Vaccinia stage Venus 18.
C[C@@H]1CCCCO[C@H](CN(C)Cc2ccccc2)[C@H](C)CN([C@H](C)CO)C(=O)c2cc(NC(=O)Cc3ccccc3)ccc2O1 was read as Vaccinia stage inconclusive.
`C[C@@H]1CN([C@@H](C)CO)C(=O)c2cc(NC(=O)C3CCCCC3)ccc2O[C@@H](C)CCCCO[C@@H]1CN(C)Cc1ccc2c(c1)OCO2` gave Vaccinia stage inconclusive.
For Cc1ccc(S(=O)(=O)Nc2ccc3c(c2)C(=O)N([C@@H](C)CO)C[C@@H](C)[C@@H](CN(C)S(=O)(=O)c2cn(C)cn2)OCCCC[C@H](C)O3)cc1 the results were Vaccinia stage 6 and Vaccinia stage Venus 10.

The results go on.
Screening C[C@H]1CCCCO[C@@H](CN(C)C(=O)Nc2ccc3c(c2)OCO3)[C@@H](C)CN([C@@H](C)CO)C(=O)c2cc(NS(=O)(=O)c3ccccc3)ccc2O1 returned Vaccinia stage 13 and Vaccinia stage Venus -2.
C/C=C/c1ccc2c(c1)[C@@H]1[C@@H](CCN1S(=O)(=O)c1ccc(C)cc1)[C@@H](CO)N2 was read as Vaccinia stage -17 and Vaccinia stage Venus -9.
`C[C@@H]1CCCCO[C@H](CN(C)C(=O)c2ccccc2)[C@H](C)CN([C@@H](C)CO)C(=O)c2cc(N(C)C)ccc2O1` gave Vaccinia stage -21 and Vaccinia stage Venus -19.
Screening O=C(c1ccccn1)N1CC(=O)N2[C@H](C1)[C@@H](c1ccc(C#CCc3ccccc3)cc1)[C@@H]2CO returned Vaccinia stage 21 and Vaccinia stage Venus 8.
`CCNC(=O)C[C@@H]1CC[C@@H]2[C@H](COc3ccc(NS(C)(=O)=O)cc3C(=O)N2C)O1` gave Vaccinia stage 18 and Vaccinia stage Venus 9.
Screening CO[C@H]1CN(C)C(=O)c2ccc(NS(=O)(=O)c3ccc(F)cc3)cc2OC[C@@H](C)NC[C@@H]1C returned Vaccinia stage 5 and Vaccinia stage Venus 4.
For C[C@H]1CN([C@@H](C)CO)C(=O)c2cc(C#CCN(C)C)cnc2O[C@H]1CN(C)Cc1ccccc1F the results were Vaccinia stage 16 and Vaccinia stage Venus 7.
O=C(N[C@@H]1CC[C@H](CCNS(=O)(=O)c2ccc(Cl)cc2)O[C@@H]1CO)c1cccnc1 was read as Vaccinia stage 1 and Vaccinia stage Venus 1.
Screening C[C@@H]1CN([C@@H](C)CO)C(=O)Cc2cc(NS(C)(=O)=O)ccc2O[C@H]1CN(C)C(=O)Nc1ccc2c(c1)OCO2 returned Vaccinia stage 2 and Vaccinia stage Venus 3.
COCC#Cc1ccc2c(c1)O[C@H](CN(C)Cc1ccccc1)[C@H](C)CN([C@H](C)CO)S2(=O)=O was read as Vaccinia stage -29 and Vaccinia stage Venus -21.
O=C(Cc1cccnc1)N1CCCCN2[C@H](CO)[C@@H](c3ccc(C#CC4(O)CCCC4)cc3)[C@@H]2C1 was read as Vaccinia stage 26 and Vaccinia stage Venus 4.
For CN(C)CC(=O)Nc1ccc2c(c1)[C@@H]1C[C@H](CC(=O)NCc3ccc(-c4ccccc4)cc3)O[C@H](CO)[C@@H]1O2 the results were Vaccinia stage inconclusive.
Screening CN1C(=O)c2cc(NC(=O)c3cscn3)ccc2OC[C@@H]2O[C@H](CC(=O)N3CCOCC3)CC[C@H]21 returned Vaccinia stage 3 and Vaccinia stage Venus 10.
`CO[C@H]1CN(C)C(=O)c2cc(NC(=O)Nc3ccccc3F)ccc2OC[C@H](C)N(CCC(F)(F)F)C[C@@H]1C` gave Vaccinia stage -23 and Vaccinia stage Venus -11.
For C[C@@H]1CN([C@@H](C)CO)C(=O)Cc2cc(NC(=O)Nc3ccccc3)ccc2O[C@H]1CN(C)Cc1ccc(-c2ccccc2)cc1 the results were Vaccinia stage -14 and Vaccinia stage Venus -3.
`Cc1ccc(S(=O)(=O)N2C[C@@H](O)COC[C@H]3O[C@@H](CC(=O)NCc4ccc5c(c4)OCO5)CC[C@@H]32)cc1` gave Vaccinia stage -31 and Vaccinia stage Venus -15.
Screening C[C@@H]1CN([C@H](C)CO)C(=O)c2cc(NS(=O)(=O)c3cccs3)ccc2O[C@@H]1CN(C)S(=O)(=O)c1ccccc1 returned Vaccinia stage -2 and Vaccinia stage Venus -3.
`C[C@H]1CN([C@@H](C)CO)C(=O)c2cccc(N(C)C)c2O[C@@H]1CN(C)Cc1ccncc1` gave Vaccinia stage 9 and Vaccinia stage Venus 3.
Screening C[C@@H]1CN([C@@H](C)CO)C(=O)c2cc(NC(=O)NC3CCCCC3)ccc2O[C@H]1CN(C)S(=O)(=O)c1ccc(F)cc1 returned Vaccinia stage 0 and Vaccinia stage Venus -2.
Screening C[C@H](CO)N1C[C@H](C)[C@@H](CN(C)S(=O)(=O)c2ccc(F)cc2)Oc2ncc(-c3cccc(C(=O)N(C)C)c3)cc2C1=O returned Vaccinia stage -14 and Vaccinia stage Venus -6.
`COC(=O)C[C@@H]1C[C@@H]2c3cc(NC(=O)Nc4ccccc4F)ccc3O[C@@H]2[C@@H](CO)O1` gave Vaccinia stage -4 and Vaccinia stage Venus 1.
For CN1CCN(C(=O)C[C@H]2C=C[C@@H](NC(=O)Cc3ccccn3)[C@@H](CO)O2)CC1 the results were Vaccinia stage 9 and Vaccinia stage Venus 3.
For O=C(NCC1CC1)[C@@H]1N[C@@H]2c3ccc(C4=CCCCC4)c(=O)n3C[C@@H]2[C@H]1CO the results were Vaccinia stage -9 and Vaccinia stage Venus -5.
COc1ccccc1-c1ccc2c(c1)O[C@H](CN(C)C(=O)Nc1cccc(F)c1)[C@H](C)CN([C@H](C)CO)S2(=O)=O was read as Vaccinia stage inconclusive.
`COc1ccc(S(=O)(=O)N(C)C[C@@H]2Oc3ccc(NC(=O)CCCN(C)C)cc3CC(=O)N([C@@H](C)CO)C[C@@H]2C)cc1` gave Vaccinia stage 12 and Vaccinia stage Venus 5.
`C[C@H]1CN([C@@H](C)CO)C(=O)c2cc(C#CC(C)(C)O)cnc2O[C@@H]1CN(C)C(=O)CN(C)C` gave Vaccinia stage 22 and Vaccinia stage Venus 9.
`CN(C)CC(=O)Nc1ccc2c(c1)[C@@H]1C[C@@H](CC(=O)NCc3ccccc3)O[C@@H](CO)[C@@H]1O2` gave Vaccinia stage 0 and Vaccinia stage Venus -7.
Screening COc1cccc(NC(=O)N(C)C[C@H]2OCc3ccccc3-c3ccccc3C(=O)N([C@@H](C)CO)C[C@H]2C)c1 returned Vaccinia stage 10 and Vaccinia stage Venus -11.
CC(C)CC#Cc1ccc2c(c1)O[C@H](CN(C)Cc1ccc3c(c1)OCO3)[C@@H](C)CN([C@H](C)CO)S2(=O)=O was read as Vaccinia stage inconclusive.
C[C@H](CO)N1C[C@H](C)[C@@H](CN(C)S(C)(=O)=O)Oc2ccc(NC(=O)c3ccncc3)cc2C1=O was read as Vaccinia stage 4 and Vaccinia stage Venus -13.
C[C@H](CO)N1C[C@H](C)[C@@H](CN(C)S(=O)(=O)c2cn(C)cn2)Oc2ccc(NS(=O)(=O)c3cn(C)cn3)cc2CC1=O was read as Vaccinia stage 16 and Vaccinia stage Venus 17.
For C[C@@H]1CCCCO[C@@H](CN(C)Cc2ccc(C(F)(F)F)cc2)[C@H](C)CN([C@@H](C)CO)C(=O)c2cc(NS(=O)(=O)c3ccccc3)ccc2O1 the results were Vaccinia stage inconclusive.
Screening O=C(C1CCC1)N1CC(=O)N2[C@@H](CO)[C@@H](c3ccc(-c4ccccc4F)cc3)[C@@H]2C1 returned Vaccinia stage -17 and Vaccinia stage Venus -12.
Screening C[C@@H]1CN([C@@H](C)CO)C(=O)c2cccc(NC(=O)C3CCOCC3)c2O[C@H]1CN(C)C returned Vaccinia stage -18 and Vaccinia stage Venus -19.
Screening C[C@H](CO)N1C[C@H](C)[C@@H](CN(C)CC2CC2)Oc2cc(-c3cccnc3)ccc2S1(=O)=O returned Vaccinia stage -7 and Vaccinia stage Venus -3.
O=C(NCC[C@@H]1CC[C@H](NC(=O)c2cccnc2)[C@H](CO)O1)Nc1ccc(C(F)(F)F)cc1 was read as Vaccinia stage -9 and Vaccinia stage Venus -9.
For CCCNC(=O)N(C)C[C@@H]1Oc2cc(-c3ccccc3F)ccc2S(=O)(=O)N([C@H](C)CO)C[C@@H]1C the results were Vaccinia stage -12 and Vaccinia stage Venus -4.
For CO[C@@H]1CN(C)C(=O)c2ccc(NS(=O)(=O)c3ccccc3)cc2OC[C@H](C)N(C(=O)NC(C)C)C[C@@H]1C the results were Vaccinia stage 7 and Vaccinia stage Venus 4.
